Methyltransferases: Primary Screen for Target Class Profiling of Small Molecule Inhibitors of Methyltransferases | calls only at 40 µM | AID 1745853, 2022 | 25,000 compounds, 3.9% hits | purified enzyme, MTase-Glo SAH luminescence; stronger effect = lower value; active = -50% or lower on at least one of six enzymes; inconclusive = the cases between; inactive = as a rule above -30% on all six;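 further: enzymes were COMT GAMT GNMT HNMT NNMT and PNMT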
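Each enzyme was assayed with SAM and its substrate. SAH formation detected by MTase-Glo luminescence; single-point 40 uM screen[…].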
Calls only; i = inactive; ? = inconclusive; + = active, no number. On the % scale 0 is the no-effect control and ±100 the full control effect. These rows are one share of the data; rates above refer to the full screens.

SMILES | Methyltransferases
CN(Cc1cccc(N2CCN(C(c3ccccc3)c3ccccc3)CC2)c1)[S+](C)(=O)[O-] | ?
COC(=O)c1ncn2c1C(=O)N(C1CC1)C(C)(C(=O)NCCCOC(C)C)C2 (stereo not given) | i
COc1ccc(C(=O)Cn2nc3n(Cc4ccccc4)c(=O)c4ccccc4n3c2=O)cc1 | i
Cc1ccc(-c2c(-c3nn(C)c4ncnc(N5CCC(N6CCCCC6)C5)c34)cnn2C)cc1 (stereo not given) | i
Cc1ccccc1CN1C(=O)c2cc3ccccc3n2CC1(C)C(=O)NCc1ccccc1 (stereo not given) | i
O=S1(=O)CC(COCc2ccccc2)CN1c1ccccc1 (stereo not given) | i
CC1(C(=O)NC2CCCCCCC2)Cn2c(ccc2-c2ccccc2)C(=O)N1Cc1ccccc1F (stereo not given) | i
CC1(C)CC2C3=CCC4C5(C)CCC(OC6OC(CO)C(O)C(OC7OC(CO)C(O)C(OC8OC(CO)C(O)C(OC9OC(COC%10OC(CO)C(O)C(O)C%10O)C(O)C(O)C9O)C8O)C7O)C6O)C(C)(C)C5CCC4(C)C3(C)CCC2(C(=O)O)CC1O (stereo not given) | i
COCCn1cnnc1C(C)NC(=O)c1cn(C2CCC(N)CC2)nn1 (stereo not given) | i
COC(=O)c1cc2n(n1)CC(C)(C(=O)NC1CCCCCC1)N(c1cccc(SC)c1)C2=O (stereo not given) | i
COCCN(C(=O)c1cc(OC)c(OC)c(OC)c1)c1nc(-c2ccccc2)cs1 | i
O=C(C1CCCN1Cc1ccc(-c2cncnc2)cc1)N1CCOCC1 (stereo not given) | i
CCOc1ccc(CCNC(=O)CNC(=O)C2(C)Cn3c(cc4ccccc43)C(=O)N2C)cc1 (stereo not given) | i
CC(C)c1c(NC(=O)Nc2ccc(Cl)cc2)c(=O)n(-c2ccccc2)n1C | i
O=S(=O)(NCC1Cn2cccc2CN1Cc1ccccc1)c1ccccc1 (stereo not given) | i
FC(F)(F)c1cccc(-c2nccn3c(C4CN(Cc5ccc6cn[nH]c6c5)C4)ncc23)c1 | +
CC(C)CCNC(=O)C1(C)Cn2c(ccc2-c2ccco2)C(=O)N1Cc1ccccc1 (stereo not given) | i
O=c1cc(N2CCOCC2)oc2c1ccc1ccccc12 | ?
CCCn1c(=O)c2ccc(C(=O)NC(C)C)cc2n2c(=O)n(CC(=O)c3ccc(Cl)cc3)nc12 | i
Cc1ccc(CNC(=O)N2CCn3cccc3C2C(C)C)cc1 (stereo not given) | i
Cc1ccc(NC(=O)Cn2nc3n(C)c(=O)c4ccc(C(=O)NC5CCCC5)cc4n3c2=O)cc1F | i
C=CCN1CCN(C(=O)C2N(c3ccc(OC)cc3)C(=O)C23CCCCC3)CC1 (stereo not given) | i
C=CCN1CC2(CCC1=O)CCN(C(=O)CC(C)n1ccnc1C)CC2 (stereo not given) | i
C[C@@H]1CCC2C(C)(C)[C@H](O)CC[C@]2(C)[C@@]12Cc1c(O)cc3c(c1O2)CN(CCO)C3=O (stereo not given in full) | i
CC(C)CCNC(=O)C1(C)Cn2c(cc3ccccc32)C(=O)N1CCc1ccccc1 (stereo not given) | i
CC1(C(=O)NC2CCCCCC2)Cn2c(cc3ccccc32)C(=O)N1Cc1ccc2c(c1)OCO2 (stereo not given) | i
CC(C)n1c(=O)c2ccc(C(=O)NC3CCCC3)cc2n2c(=O)n(Cc3cccc(Cl)c3)nc12 | i
CCC(C(=O)N1CCC2(CCC(=O)N(Cc3ccccn3)C2)CC1)n1cccn1 (stereo not given) | i
C=C1CCC2[C@@](C)(C(=O)O)CCC[C@@]2(C)[C@@H]1CCc1ccoc1 (stereo not given in full) | i
COc1ccc(N2CCN(C(=O)c3ccc4c(=O)nc5c(-c6ccccc6F)n[nH]n5c4c3)CC2)cc1 | i
CC1CC(C)CN(S(=O)(=O)c2ccc3c(c2)oc(=O)n3CC(=O)N2CCN(C)CC2)C1 (stereo not given) | i
COCC1CN(C2CCC2)CC12CCN(Cc1scnc1C)CC2 (stereo not given) | i
CCOc1ccc(NC(=O)N2CCn3cccc3C2Cc2ccccc2)cc1 (stereo not given) | i
O=C1CN(Cc2ccc(F)cc2Cl)S(=O)(=O)c2ccccc2N1Cc1cccc(F)c1 | i
Cc1ccc(CC(=O)N2CCN(c3cc(C(F)(F)F)ncn3)CC2)cc1 | i
CCc1cccc(NC(=O)Cn2nc3n(C(C)C)c(=O)c4ccc(C(=O)NCC(C)C)cc4n3c2=O)c1 | i
CC(C)=CCc1c(O)cc2oc3cc(C)cc(O)c3c2c1C | i
C=C(C)C(=O)O[C@H]1[C@H]2C(=C)C(=O)O[C@@H]2/C=C(\CO)CC/C=C(/C=O)[C@@H]1O | i
CCOc1ccc(-c2nn3ncccc3c2-c2ccc(S(C)(=O)=O)cc2)cc1 | ?
CCN1CCN(CCNC(=O)CCn2ccc3cc(S(=O)(=O)N4CCCCC4)ccc32)CC1 | i

Reformatted: results already given.
CC1CC(C)CN(S(=O)(=O)c2ccc3c(c2)oc(=O)n3CC(=O)N2CCN(C)CC2)C1 (stereo not given)
  Methyltransferases = i

COCC1CN(C2CCC2)CC12CCN(Cc1scnc1C)CC2 (stereo not given)
  Methyltransferases = i

CCOc1ccc(NC(=O)N2CCn3cccc3C2Cc2ccccc2)cc1 (stereo not given)
  Methyltransferases = i

New compounds follow:
SMILES | Methyltransferases
CCCNC(=O)N1CCOC[C@H](Oc2ccc(OC)cc2)C1 | i
CC1(C(=O)NC2CCCCC2)Cn2c(cc3occc32)C(=O)N1C1CCCCC1 (stereo not given) | i
CCC(C)NC(=O)c1ccc2c(=O)n(C)c3nn(Cc4ccccc4Cl)c(=O)n3c2c1 (stereo not given) | i
CC(=O)N(C1CC1)C1CCOC2(CCN(C(=O)c3sc(C)nc3C)CC2)C1 (stereo not given) | i
Cn1ccc(C(=O)NCc2nnc3n2C(C(=O)NCC2CC2)CC3)n1 (stereo not given) | i
O=C(NNc1ccccc1)c1ccncc1 | i
Cc1cc2c(c(=O)n(-c3ccc(F)cc3)c(=O)n2CC(=O)Nc2cccc(C#N)c2)n1C | i
C/C=C/C=C/C=C/C(=O)O[C@@H]1C=C(CO)C(O)(C(=O)O)[C@@]2(C)CCCC(C)(C)[C@H]12 (stereo not given in full) | ?
Cc1ccc(CNC(=O)c2ncn3c2C(=O)N(C2CC2)C(C)(C(=O)NCc2cccc(C)c2)C3)cc1 (stereo not given) | i
O=C(Cn1ccc2cc(S(=O)(=O)N3CCCCC3)ccc21)NCCCN1CCOCC1 | i
Cc1ccc(C)c(OCCn2cc(C(=O)O)c3ccccc32)c1 | i
O=C1CN(Cc2cccc(Br)c2)S(=O)(=O)c2ccccc2N1Cc1ccc(F)cc1 | i
O=C1CN(Cc2cccc(F)c2)S(=O)(=O)c2ccccc2N1Cc1ccc(Cl)cc1 | i
CN1C(=O)c2cc(C(=O)NCCc3cccs3)nn2CC1(C)C(=O)NC1CCCC1 (stereo not given) | i
COc1cccc(CNC(=O)c2cc3n(n2)CC(C)(C(=O)NCCC(C)C)N(C)C3=O)c1OC (stereo not given) | i
Cc1ccccc1CNC(=O)C1(C)Cc2ccccc2C(=O)N1Cc1cc(F)cc(F)c1 (stereo not given) | i
C#CCN(C)CC[C@@H]1CC[C@H](O)[C@@H](C(=O)NC2CCCCC2)O1 | i
CCCN1C(=O)c2c(C(=O)Nc3ccccc3Cl)ncn2CC1(C)C(=O)NCc1ccc(C)cc1 (stereo not given) | i
CCC(NS(=O)(=O)c1ccc(C(=O)NC2CC2)cc1)c1cnn(C)c1 (stereo not given) | i
Cn1ncc(N2CCCC(C(=O)NCCCc3ccccc3)C2)cc1=O (stereo not given) | i

The closing 7 entries of the part above lead into the next:
SMILES | Methyltransferases
CN1C(=O)c2cc(C(=O)NCCc3cccs3)nn2CC1(C)C(=O)NC1CCCC1 (stereo not given) | i
COc1cccc(CNC(=O)c2cc3n(n2)CC(C)(C(=O)NCCC(C)C)N(C)C3=O)c1OC (stereo not given) | i
Cc1ccccc1CNC(=O)C1(C)Cc2ccccc2C(=O)N1Cc1cc(F)cc(F)c1 (stereo not given) | i
C#CCN(C)CC[C@@H]1CC[C@H](O)[C@@H](C(=O)NC2CCCCC2)O1 | i
CCCN1C(=O)c2c(C(=O)Nc3ccccc3Cl)ncn2CC1(C)C(=O)NCc1ccc(C)cc1 (stereo not given) | i
CCC(NS(=O)(=O)c1ccc(C(=O)NC2CC2)cc1)c1cnn(C)c1 (stereo not given) | i
Cn1ncc(N2CCCC(C(=O)NCCCc3ccccc3)C2)cc1=O (stereo not given) | i
CCc1ccc(C(=O)N2CC(c3nnc(C(C)C)o3)C3(CCOCC3)C2)cc1 (stereo not given) | i
CCOc1ccccc1NC(=O)N1Cc2c(sc3c2CCCC3)-n2cccc2C1c1cc(F)cc(F)c1 (stereo not given) | i
O=C(O)c1cc(=O)c2c(Cl)cc(Cl)cc2[nH]1 | i
COc1ccc(Cl)cc1S(=O)(=O)NCCn1c(-c2ccc(F)cc2)nc2ccccc21 | i
CCOc1ccccc1CN1C(=O)c2cc3occc3n2CC1(C)C(=O)NC1CCC(C)CC1 (stereo not given) | i
Clc1cc(Cl)c2c(c1)N=C1CCCCCN1C2 | ?
Cc1ccc(C(C(=O)NCc2c(C)n[nH]c2C)N(C)C)cc1 (stereo not given) | i
COc1ccc2c(c1O[C@H]1CCNC1)CCC2 | i
CC(C)n1c(=O)c2ccc(C(=O)NC3CCCC3)cc2n2c(=O)n(Cc3ccc(Cl)cc3)nc12 | i
CC1(C(=O)NC2CCCC2)Cn2c(cc3ccccc32)C(=O)N1Cc1cccs1 (stereo not given) | i
CC(=O)NCCCCn1c2c(c3ccccc31)C(=O)NCC2 | +
COc1cncc([C@@H](NC(=O)CCc2c(C)noc2C)C2CC(O)C2)c1 (stereo not given in full) | i
CC1CCN(S(=O)(=O)c2ccc3c(ccn3CC(=O)NCCc3ccc(Cl)cc3)c2)CC1 | i
CC1CCN(CC2CCCCCN2C(=O)Nc2ccc3c(c2)OCCO3)CC1 (stereo not given) | i
Cn1ccc(C(=O)N[C@@H]2COCC[C@@H]2OCc2cscn2)cc1=O | i
COc1cc(/C=C/C(=O)O[C@H]2[C@@H]3C=CO[C@@H](O[C@@H]4O[C@H](CO)[C@@H](O)[C@H](O)[C@H]4O)[C@@H]3[C@@]3(CO)O[C@@H]23)ccc1O | +
CC(C)n1nc(Cc2cccc3ccccc23)c2c(N)ncnc21 | +
CCn1c(=O)n(CC)c2cc(S(=O)(=O)Nc3ccccc3OC)ccc21 | i
Cc1cccc(CSc2nnc3n(C)c(=O)c4ccc(C(=O)NC5CCCCC5)cc4n23)c1 | i
Cc1nc2c3ccccc3n(CC(=O)N3CCN(c4ccccc4F)CC3)c(=O)n2n1 | i
CCC(C)NC(=O)c1ccc2c(=O)n(C(C)C)c3nn(CC(=O)c4cccc(Cl)c4)c(=O)n3c2c1 (stereo not given) | i
CCOc1ccccc1CN1C(=O)c2cc3ccccc3n2CC1(C)C(=O)NCCC(C)C (stereo not given) | i
Cc1ccc(C)c(C(=O)Cn2nc3n(CCC(C)C)c(=O)c4ccc(C(=O)NC(C)C)cc4n3c2=O)c1 | i
COc1ccccc1CNC(=O)C1(C)Cn2nc(-c3ccccc3)cc2C(=O)N1c1cccc(Cl)c1C (stereo not given) | i
CCCCN1C(=O)c2cc(C(=O)Nc3ccccc3C)nn2CC1(C)C(=O)NC1CCCC1 (stereo not given) | i
COCCCNC(=O)c1ccc2nnc(Cc3ccc(Cl)cc3)n2c1 | i
CC(C)NC(=O)c1ccc2c(=O)n(C)c3nn(CC(=O)Nc4ccccc4)c(=O)n3c2c1 | i
COc1ccc(-c2cc(N3CCCC(NC(=O)C4CCCC4)C3)n[nH]2)cc1 (stereo not given) | i
CCCN1C(=O)c2cc(C(=O)NCCCOC)nn2CC1(C)C(=O)NC1CCCC1 (stereo not given) | i
O=C(NCc1ccc(F)cc1)C(=O)c1c[nH]c2ccccc12 | i
CCOC(=O)C1CCN(C(=O)C2CCc3nnc(CN[S+](C)(=O)[O-])n32)CC1 (stereo not given) | i
N#Cc1ccc(COC[C@H]2O[C@@H](n3c(NCc4ccc(Cl)c(Cl)c4)nc4c(N)ncnc43)[C@H](O)[C@@H]2O)cc1 | +
CCCCN1C(=O)c2cc(C(=O)Nc3cccc(C(=O)OCC)c3)nn2CC1(C)C(=O)NC1CCCC1 (stereo not given) | i
COc1ccc(OC)c(CNC(=O)c2ncn3c2C(=O)N(C2CC2)C(C)(C(=O)NC2CCCC2)C3)c1 (stereo not given) | i
CC(C)NC(=O)C(=O)NCc1cccnc1 | i
Cc1cccc(C(=O)N2CC[C@H]3C(=O)NCCCCCCN(Cc4ccncc4)[C@@H]3C2)c1 | i
COc1ccc(S(=O)(=O)NCCNc2cc(C)nc3ccnn23)cc1 | i
Cc1ccc(NC(=O)Cn2nc3n(CC(C)C)c(=O)c4ccccc4n3c2=O)cc1C | i
CN1C(=O)c2cc(C(=O)NCc3cccc(F)c3)nn2CC1(C)C(=O)NCc1ccc(F)cc1 (stereo not given) | i
CN1CCC(C(=O)N2Cc3ccccc3CC3(CCN(C)C3)C2)CC1 (stereo not given) | i
NCCCC(=O)N1CCN(C2CCNCC2)C(=O)C1 | i
CCOc1ccc(NC(=O)N2CCn3cccc3C2C(C)C)cc1 (stereo not given) | i
CC1(C(=O)NC2CCCCCC2)Cn2nc(-c3ccco3)cc2C(=O)N1Cc1cccs1 (stereo not given) | i
